Source: PubChem
Biofilm kill mix: clotrimazole potentiators killing C. albicans biofilm, primary screen, 4-compound mixtures; C. albicans biofilm persisters + clotrimazole, fluorescence viability; primary screen in compound mixtures of four per well; inhibition, % at 7.6 µM; 0.02% of 120,000 active; AID 1242, 2008;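 active means inhibition above 30.3% in the primary screen of four-compound pools, then above 30% when the compound was retested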;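 further: compounds exposed to preformed 24 h biofilms for 48 h; the number belongs to the whole pool; some results filed as inactive read as strong as hits; inactives centre near 12; 0% = biofilm with clotrimazole alone and 100% = kill control; retested singly at about 60 µM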
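Test system: C. albicans CAF4-2 wild-type biofilms; buffer or medium: RPMI/MOPS medium, pH 7.0; schedule: 24 h biofilm formation, then 48 h compound exposure, 37 °C; detection: Alamar Blue fluorescence; measure: percent inhibition of biofilm viability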
* marks the source's active call; other numbers are inactive results. Not all compounds are listed. The share of hits here may be higher or lower than overall.

SMILES | Biofilm kill mix
Cc1cc(C)nc(SCc2nnc(SCC(=O)O)n2-c2ccccc2)n1 | 8
c1ccc(Oc2cc(-c3ccccc3)nc(-c3ccccc3)n2)cc1 | 19
O=C(CC12CC3CC(CC(C3)C1)C2)NCc1ccco1 | -15
O=C(COc1ncnc2sccc12)NC1CCS(=O)(=O)C1 (stereo unspecified) | 15
Cc1cccc(-n2c(O)c(C=Nc3cc(O)ccc3C)c3ccccc3c2=O)n1 | 5
[O-]/C(=C(\C(=S)Nc1ccccc1F)[n+]1ccccc1)c1ccc(OC(F)F)cc1 | 28
O=C(COc1cccc(Br)c1)NN=C1c2ccccc2-c2ccccc21 | 9
CC(NC(=O)C1CCCN1C(=O)OCc1ccccc1)c1ccccc1 (stereo unspecified) | 10
CCN(CC)CCNC(=O)C(=O)NCC1OCCN1C(=O)c1ccc2c(c1)OCO2 (stereo unspecified) | 16
COc1cc(/C=C2\SC(=S)N(N(C)c3ccccc3)C2=O)ccc1O | 23
CCN(CC)C1=C(Cl)C(=O)C(Cl)C12OCCO2 (stereo unspecified) | 12
CCCCCCCCN1C(=O)C(O)=C(C(C)=O)C1c1ccccn1 (stereo unspecified) | 9
Cc1cccc(NC(=S)Nc2ccc3cn[nH]c3c2)c1 | 30
O=C(c1ccccc1)C1CCN(C(=O)Nc2ccccc2)CC1 | 14
COc1cccc(C(=O)NN2c3ccccc3CCc3ccccc32)c1 | 7

Quoted from the listing:
Result for O=C(CC12CC3CC(CC(C3)C1)C2)NCc1ccco1 under Biofilm kill mix: -15
Result for COc1cc(/C=C2\SC(=S)N(N(C)c3ccccc3)C2=O)ccc1O under Biofilm kill mix: 23
Result for O=C(c1ccccc1)C1CCN(C(=O)Nc2ccccc2)CC1 under Biofilm kill mix: 14

Additional structures
SMILES | Biofilm kill mix
O=C(N/N=C/c1ccccn1)c1ccc(N/N=C/c2ccccn2)cc1 | 1
O=C(NCc1ccc2c(c1)OCO2)Nc1ccc2nsnc2c1 | 2
O=C(Nc1ccccc1F)C(=O)c1cn(CC(=O)N2CCCCC2)c2ccccc12 | 10
CCN(CC)c1ccc(/C=N/NC(=O)c2c[nH]c3ccccc23)cc1 | 16
Fc1ccc(-c2nnc(Cc3ccc(Cl)cc3)o2)cc1 | 17
Cc1[nH]n(-c2ccccc2)c(=S)c1C=Nc1ccc([N+](=O)[O-])cc1 | 9
CC1(C)NC(=O)N(CCOCCOc2ccccc2-c2ccccc2)C1=O | 1
COc1ccc(Br)cc1/C=N/NC(=O)CNC(=O)c1cccnc1 | 19
CCOc1ccccc1/C=C(/C#N)C(N)=O | 15
O=C(CN1C(=O)CSc2cc(S(=O)(=O)N3CCCCCC3)ccc21)NCCc1ccccc1 | 20
CCOc1ccc(N=C2NC(=O)SC2CC(=O)OC)cc1 (stereo unspecified) | 25
CCOC(=O)C1CCCN(C(=O)c2cc(S(=O)(=O)N3CCCCC3)ccc2C)C1 (stereo unspecified) | 1
C/C(=N\NS(=O)(=O)c1ccccc1)c1cccc(NC(=O)c2cccc(Cl)c2)c1 | 19
COc1ccc(C(=O)NC(=S)NCc2cccnc2)cc1OC | 2
NC(N)=NC(N)=Nc1cccc(Cl)c1 | 15
CN(C)CC/C=C1/c2ccccc2Sc2c(O)cc(Cl)cc21 | 8
Clc1ccc(C2CC(c3cccs3)n3ncnc3N2)cc1 (stereo unspecified) | 11
C/C=C\C=C/C(=O)Nc1cccc(C2=NOC3(C2)C[C@H](C(N)=O)N(C(=O)c2ccc(OC)cc2)C3)c1 (stereo partly specified) | 13
CCOc1ccc(NC(=O)CN2CCN(C3c4ccccc4-c4ccccc43)CC2)cc1 | 5
CC1(C)CC(CC(=O)Nc2nccs2)(c2ccccc2)CCO1 (stereo unspecified) | 5
COc1ccccc1CC(=O)Nc1cccc2c1CCCC2 | 17
CCOc1ccccc1N(C(=O)Nc1ccc(Cl)cc1)C1=NCCS1 | 25
Nc1ncc([N+](=O)[O-])c(Oc2ccccc2F)n1 | 14
CN(C)c1cccc2c(C=C(C#N)C#N)ccc(N(C)C)c12 | 15
Cn1nnnc1SCC(=O)N1CCCc2ccccc21 | 16
C=CCOc1ccc(C2NC(=S)NC(c3ccccc3)=C2C(C)=O)cc1OC (stereo unspecified) | 12
C/C(=N/N=C1/NC(=O)CC(C(=O)Nc2ccccc2)S1)c1cccs1 (stereo unspecified) | 15
Cc1c(NC(=O)CSc2ncccn2)c(=O)n(-c2ccccc2)n1C | 19
COc1ccc(N2CCCn3c2nc2c3c(=O)n(Cc3ccccc3)c(=O)n2C)c(OC)c1 | 14
NNC(=O)c1ccc(N2CCc3ccccc32)c([N+](=O)[O-])c1 | -2
CN(C(=O)COC(=O)CNC(=O)CNC(=O)c1ccc(Cl)cc1Cl)c1ccccc1 | 14
O=C(NC1CCCCC1)c1ccc(CNc2nc(=S)[nH]c3ccccc23)cc1 | 5
COc1ccc(NC(=O)c2cc(SC)ccc2Cl)cc1 | 19
COc1cc(C(=O)NNC2=CC(=O)CC(C)(C)C2)cc(OC)c1OC | 10
Cc1ncn(-c2ccc(C(=O)Oc3ccccc3)cn2)n1 | 6
O=C(C1CC12CCCC2)N1CCC(CO)(Cc2ccccc2Cl)CC1 (stereo unspecified) | -6
C=CCN(CC=C)C(=O)C[n+]1ccc(C(N)=O)cc1 | 22
CC1=C(C)C(OCCBr)N(c2cc(O)c(Cl)cc2F)C1=O (stereo unspecified) | -1
CCC(=O)NC(=S)NNC(=O)c1ccccc1[N+](=O)[O-] | 5
CCCCN(C(=S)SC)C1CCS(=O)(=O)C1 (stereo unspecified) | 14
COc1ccc(C2CC(c3ccccc3)=NN2C(=S)Nc2ccccc2)cc1 (stereo unspecified) | 14
COCCCn1c(=N)c(C(=O)NCC2CCCO2)cc2c(=O)n3cccc(C)c3nc21 (stereo unspecified) | 12
O=C(Nc1ccc(O)c2c(=O)cc(-c3ccccc3Cl)oc12)c1ccc(Cl)cc1Cl | 18
CCC(C(=O)NC(C)(C)C)N(C(=O)Cn1nnc(-c2ccccc2F)n1)c1cnc2ccccc2c1 (stereo unspecified) | 12
CCCc1cc(=O)[nH]c(SCC(=O)Nc2cc(C)on2)n1 | 6

As a short view, part of the list above:
SMILES | Biofilm kill mix
COc1ccc(NC(=O)c2cc(SC)ccc2Cl)cc1 | 19
COc1cc(C(=O)NNC2=CC(=O)CC(C)(C)C2)cc(OC)c1OC | 10
Cc1ncn(-c2ccc(C(=O)Oc3ccccc3)cn2)n1 | 6
O=C(C1CC12CCCC2)N1CCC(CO)(Cc2ccccc2Cl)CC1 (stereo unspecified) | -6
C=CCN(CC=C)C(=O)C[n+]1ccc(C(N)=O)cc1 | 22

(more compounds)
SMILES | Biofilm kill mix
OCCN(Cc1ccccc1)CC(O)COc1ccc(-c2ccccc2)cc1 (stereo unspecified) | 5
COc1ccc(-c2ncccc2OC(=O)C23CC4CC(CC(C4)C2)C3)cc1 | -3
O=C(Nc1ccc(N2CCOCC2)c(Cl)c1)c1cc2ccccc2o1 | 18
CN(C)S(=O)(=O)c1cccc(NC(=S)N/N=C/C(=O)c2ccccc2)c1 | 11
O=C(Cc1ccc([N+](=O)[O-])cc1)NCc1ccncc1 | 1
O=C(Nc1ccc(F)cc1F)N1CCCC(c2nc(-c3ccc(F)cc3)no2)C1 (stereo unspecified) | 17
Cn1cccc1CC(=O)NNC(=S)NC(=O)c1ccccc1Br | 0
COc1ccccc1N=CC=C1OC(C)(C)C(C)(C)O1 | 10
CC(CCc1ccccc1)NC(=O)C(=O)NCCc1ccccc1 (stereo unspecified) | 18
COC(=O)Nc1nnc(COc2cccc(C)c2)s1 | 21
CCN1CCN(c2ncc(C(=O)Nc3cc(Cl)c(OC)cc3OC)c3ccccc23)CC1 | 13
Cc1ccccc1-n1c(O)c(/C=N/N2CCCCC2c2cccnc2)c(=O)[nH]c1=O (stereo unspecified) | 7
COc1cc(C(CCN2CCCC(C)C2)c2c(OC)cc(OC)c3c(-c4ccccc4)cc(=O)oc23)cc(OC)c1OC (stereo unspecified) | 17
CCN(CC(=O)Nc1c(F)cccc1F)C(=O)COc1ccc2c(C)cc(=O)oc2c1 | 4
O=C(N/N=C/c1ccc(OCc2ccccc2)cc1)c1ccco1 | 24

Continued (six carried over from the part before).
SMILES | Biofilm kill mix
COC(=O)Nc1nnc(COc2cccc(C)c2)s1 | 21
CCN1CCN(c2ncc(C(=O)Nc3cc(Cl)c(OC)cc3OC)c3ccccc23)CC1 | 13
Cc1ccccc1-n1c(O)c(/C=N/N2CCCCC2c2cccnc2)c(=O)[nH]c1=O (stereo unspecified) | 7
COc1cc(C(CCN2CCCC(C)C2)c2c(OC)cc(OC)c3c(-c4ccccc4)cc(=O)oc23)cc(OC)c1OC (stereo unspecified) | 17
CCN(CC(=O)Nc1c(F)cccc1F)C(=O)COc1ccc2c(C)cc(=O)oc2c1 | 4
O=C(N/N=C/c1ccc(OCc2ccccc2)cc1)c1ccco1 | 24
O=C(COC(=O)C1CCN(/C=C/C(=O)C(F)(F)F)CC1)Nc1cccc(F)c1 | 18
Cn1c(=O)c2ccccc2n(Cc2ccccc2F)c1=O | 18
Cc1cc(C)nc(NC(=O)C(c2ccccc2)c2ccccc2)c1 | -4
O=C(NCc1ccccn1)C(=O)Nc1nc(-c2ccccc2)cs1 | 28
CCOC(=O)C1=C(C)OC(N)=C(C#N)C1c1cc2c(cc1[N+](=O)[O-])OCO2 (stereo unspecified) | 9
Cc1cc2c(cc1C)N(Cc1ccccc1)C1=NCCCN12 | 6
Cc1nn(C(=O)Cn2cc([N+](=O)[O-])cn2)c(C)c1Cl | 2
CCC(C)n1c(SCC(=O)NCCc2ccc(S(N)(=O)=O)cc2)nc2ccsc2c1=O (stereo unspecified) | 19
Cc1cccc(N(C)C(=O)C2CCCN2S(=O)(=O)c2cccc3nsnc23)c1 (stereo unspecified) | 12
CCCCN(C)CCNC(=O)c1nn(-c2ccc(OC)cc2)c(=O)c2c1c1ccccc1n2C | 11
CCOc1ccc(N/C(=N/c2nc(C)cc(C)n2)NC(=O)CC)cc1 | 20
CSc1nnc(-c2cccs2)n1C | 18
CSc1nsc(SCC(=O)Nc2nc3ccc(C)cc3s2)n1 | 19
Cc1cccnc1Nc1ncnc(N)c1[N+](=O)[O-] | 0
CCCCCCOc1ccc(NC(=O)CC2C(=O)N(CC)C(=S)N2Cc2ccco2)cc1 (stereo unspecified) | 8
Cc1cccc(N2CCN(C(=O)c3ccc4c(c3)OCCO4)CC2)c1C | 10
COc1cc(/C=N/NC(=O)C(=O)/C=C2\NC(C)(C)Cc3ccccc32)ccc1O | 16
CC1=C(C)C(C)=C(C#N)C(=C(C#N)C#N)N1 | 12
Cc1cnc(NC(=O)Nc2ccc(Cl)cc2)s1 | -10
O=C(C1=C[C@H](c2ccc(C(F)(F)F)cc2)C[C@H](OCc2ccc(CO)cc2)O1)N1CCOCC1 | 10
CCOC(=O)c1sc(-c2ccccn2)nc1C | 3
O=c1c(Cc2ccc(F)cc2)c(O)ccn1Cc1ccco1 | 9
COC(=O)c1cc(NS(=O)(=O)c2ccc(NC(C)=O)cc2)ccc1Cl | 22
Cc1ccc(C(C)C)c(OCc2ccc(C(=O)N/N=C/c3ccc(O)cc3O)cc2)c1 | 5
COc1ccc(CNc2ncnc3cc(OC)c(OC)cc23)cc1OC | 11
CCOCCCNC(=O)c1ccccc1SCC | 15
O=C(Cn1cnc2ccccc2c1=O)N1CCN(c2ccccc2)CC1 | 17
C/C(=N/NC(=O)c1cc(O)c(O)c(O)c1)c1ccc([N+](=O)[O-])cc1 | 8
COC(=O)c1ccc(NC(=O)Nc2ccc(F)cc2F)cc1 | 14
COc1ccc2c(c1)-c1nc(NC(=O)c3ccco3)sc1CC2 | 17
CSCCC(NC(=O)COc1cccc2ccccc12)C(=O)O (stereo unspecified) | 1
Nc1nc2ccccc2n1C(=O)c1ccco1 | 9
NC(=O)NC(=O)COC(=O)c1cccc(S(=O)(=O)N2CCCCCC2)c1 | 9
CCN(CC)CCNC(=S)N1CCn2c(nc3ccccc32)C1 | 20
O=C(O)CN(C1CCCCC1)S(=O)(=O)c1ccc(F)cc1 | 0
Cc1cccc(/C=N\NC(=O)c2ccccc2-n2cccc2)c1 | 5
Nc1cc(N)nc(SCC(=O)Nc2ccccc2N2CCOCC2)n1 | 14
CCC1c2ccc(C)n2CCN1C(=O)Nc1ccccc1C(=O)OC (stereo unspecified) | 15
CC(C)CN(CCCNC(=O)CN1C(=O)COc2ccc(S(=O)(=O)N3CCCC3)cc21)CC(C)C | 9
O=C(Nc1cccnc1Cl)c1cc([N+](=O)[O-])ccc1Cl | 16
Cc1c(-n2c(-c3ccccc3Cl)n[nH]c2=S)c(=O)n(-c2ccccc2)n1C | 9
COC(=O)NC(NS(=O)(=O)c1ccccc1)(C(=O)OC)C(F)(F)F (stereo unspecified) | 16
CCS(=O)(=O)N1CCN(c2ccc([N+](=O)[O-])c(N3CCOCC3)c2)CC1 | 13
Cc1c(Cl)c([N+](=O)[O-])nn1CCCC(=O)NCCc1ccccc1 | 14
COc1ccc(C2=NCCc3cc(OC)c(OC)cc32)cc1 | 20

Overlap with the part before: five compounds; new compounds follow.
SMILES | Biofilm kill mix
Cc1c(-n2c(-c3ccccc3Cl)n[nH]c2=S)c(=O)n(-c2ccccc2)n1C | 9
COC(=O)NC(NS(=O)(=O)c1ccccc1)(C(=O)OC)C(F)(F)F (stereo unspecified) | 16
CCS(=O)(=O)N1CCN(c2ccc([N+](=O)[O-])c(N3CCOCC3)c2)CC1 | 13
Cc1c(Cl)c([N+](=O)[O-])nn1CCCC(=O)NCCc1ccccc1 | 14
COc1ccc(C2=NCCc3cc(OC)c(OC)cc32)cc1 | 20
N/C(=N\OC(=O)COc1ccc2ccccc2c1Br)c1cccnc1 | 14
Cc1cc2ccccc2n1CCNC(=O)c1ccc(Br)o1 | 15
COc1ccc(CNC(=O)c2cc(C)nn2-c2ccccc2)cc1 | 22
CNC(=O)NC(=O)C(C)OC(=O)c1ccc(Cl)c(S(=O)(=O)Nc2ccc(F)cc2)c1 (stereo unspecified) | 14
Clc1ccc(Cc2nnc(-c3ccccc3Br)o2)cc1 | 12
CC1CCCC(NC(=O)CNCc2ccccc2F)C1C (stereo unspecified) | 9
